# Source: PubChem
# CSC inhib: cancer stem cell viability inhibitors, primary screen, luminescence | cancer stem cell-like cells viability | inhibition, % at 7.5 µM | actives 1.1% (n = 300,000);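 active = mean at 75% or more and at least half the replicates too; tested in HMLE shEcad cells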;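 note: 0% = median of negative and 100% = median of positive control wells; the first replicate is given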
# UUG fidelity: modulators of yeast start codon fidelity, primary screen, whole organism, S. cerevisiae, single point, plate reader. S. cerevisiae UUG-firefly luciferase reporter, luminescence/redox ratio. activity score, % at 18.7 µM. actives 0.13% (n = 350,000);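 active = replicate mean at a twofold rise or more, about +100% in these data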;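 note: firefly luciferase made from a UUG start codon reports start codon fidelity; reporter light over untreated wells divided by growth signal over untreated wells; some hits fall short of that in this replicate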
# eIF4H inh: human eIF4H binding inhibitors, primary screen, translation initiation inhibitor project, biochemical, uHTS, fluorescence polarization. inhibition, % at 35 µM. actives 0.94% (n = 290,000). eIF4H fluorescence polarization binding assay. Eukaryotic translation initiation factor 4H (Homo sapiens), Q15056;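 active = 50% or more with normal probe brightness, or confirmed in later tests; about a fifth of its hits are not listed in these tables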;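 note: calls also rest on retests at 20 µM and on dose response follow-up; 0% = protein and probe with vehicle and 100% = probe without protein; strong numbers were not always called active; many hits fall short of the cut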
# MT1-MMP act inh: blockers of MT1-MMP proenzyme processing, primary screen, HT1080 RFP-PRO-GFP cells, GFP/RFP fluorescence; Matrix metalloproteinase-14 (Homo sapiens), P50281; GFP/RFP ratio fluorescence, overnight; percent of plate control window, DMSO zero; GFP/RFP ratio change, % at 20 µM; actives 0.061% (n = 360,000); AID 651647, 2012;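 active = GFP/RFP ratio change of at least 30% with cell ATP level not reduced by more than half and red fluorescence within 50% of control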; note: strong numbers were not always called active
#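 Assay system – RFP-PRO-GFP reporter HT1080 cells · Compound dosing – single dose of 20 µM compound, 1% DMSO final · Incubation – overnight compound exposure at 37 °C · Measure – GFP/RFP fluorescence ratio · Benchmarks – DMSO wells and RFP-L50D-GFP cells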
# PABP FP inh: PABP poly(A) RNA binding inhibitors, primary screen, biochemical, fluorescence polarization, uHTS | actives 1% (n = 290,000) | Polyadenylate-binding protein 1 (Homo sapiens), P11940 | inhibition, % at 35 µM;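 active = 50% or more with normal probe brightness, or confirmed in later tests; about a fifth of its hits are not listed in these tables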;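 note: calls also rest on retests at 20 µM and on dose response follow-up; controls were probe without protein and protein plus probe with vehicle; some compounds called inactive have numbers as strong as hits; many hits fall short of the cut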
# Target sequence (P11940 whole entry, looked up): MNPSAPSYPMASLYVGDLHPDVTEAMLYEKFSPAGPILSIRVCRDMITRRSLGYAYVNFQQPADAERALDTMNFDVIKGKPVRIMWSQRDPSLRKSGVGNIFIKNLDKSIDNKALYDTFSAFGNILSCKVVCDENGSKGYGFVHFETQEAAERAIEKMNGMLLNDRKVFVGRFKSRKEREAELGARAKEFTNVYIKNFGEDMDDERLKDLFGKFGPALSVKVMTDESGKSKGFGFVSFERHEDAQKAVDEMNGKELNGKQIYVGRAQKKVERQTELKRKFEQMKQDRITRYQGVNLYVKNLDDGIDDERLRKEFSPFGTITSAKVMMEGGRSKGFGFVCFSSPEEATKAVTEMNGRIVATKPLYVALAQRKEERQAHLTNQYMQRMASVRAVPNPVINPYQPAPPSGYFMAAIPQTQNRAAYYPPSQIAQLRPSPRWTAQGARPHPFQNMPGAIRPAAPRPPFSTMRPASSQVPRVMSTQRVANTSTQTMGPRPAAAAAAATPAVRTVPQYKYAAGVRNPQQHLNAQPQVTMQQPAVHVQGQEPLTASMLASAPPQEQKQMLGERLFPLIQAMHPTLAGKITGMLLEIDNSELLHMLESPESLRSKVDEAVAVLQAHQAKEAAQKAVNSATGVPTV
# HIV Env fusion: inhibitors of HIV-1 Env-driven cell-cell fusion, primary screen, HeLa-JRFL effector, CEM21 target cells, luciferase. actives 1.1% (n = 360,000). AID 651610, 2012. inhibition, % at 12.3 µM;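 active = mean replicate inhibition score of at least 50 and every replicate individually at or above 50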;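 note: 0% = plate neutral controls and 100% = maraviroc near 300 nM; one replicate is shown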
# Rce1 inhib: yeast Rce1p protease inhibitors, primary screen, biochemical, fluorescence, cell-free homogeneous; CAAX prenyl protease 2 (Saccharomyces cerevisiae (strain ATCC 204508 / S288c)), Q03530; calls only; actives 0.27% (n = 290,000); AID 2563, 2010; yeast membranes, quenched prenylated peptide cleavage fluorescence;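 active = fall in fluorescence gain of 50% or more versus controls, with final raw signal at or below 3038400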;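 note: plate controls were neutral control wells for no effect and wells lacking membranes for full effect; tested at 10 µM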
# Target sequence (Q03530 whole entry, looked up): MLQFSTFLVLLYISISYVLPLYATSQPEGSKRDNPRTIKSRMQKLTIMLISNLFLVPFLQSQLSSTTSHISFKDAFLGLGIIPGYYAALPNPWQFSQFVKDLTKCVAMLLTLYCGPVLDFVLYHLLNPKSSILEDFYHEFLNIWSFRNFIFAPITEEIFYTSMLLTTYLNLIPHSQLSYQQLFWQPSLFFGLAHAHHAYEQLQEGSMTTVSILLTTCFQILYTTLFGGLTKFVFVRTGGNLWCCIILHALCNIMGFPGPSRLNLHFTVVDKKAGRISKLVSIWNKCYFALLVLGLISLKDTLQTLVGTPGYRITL
# eIF4H inh retest: further read-out of eIF4H inh, marked with its call; inhibition, %; compound at 20 µM; confirmation average;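 mean of two retest wells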
# PABP FP inh retest: second read-out of PABP FP inh, no call of its own (marks repeat the call); inhibition, %; compound at 20 µM; confirmation repeats;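 mean of two retest wells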
# MT1-MMP act inh RFP: second read-out of MT1-MMP act inh, no call of its own (marks repeat the call); RFP signal change, %; measured here: RFP expression control read;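 0 = vehicle wells; hits needed this value within 50% of zero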
# Numbers without * were called inactive; i = inactive; . = no result given. Not all compounds are listed; count on the stated rates, not on these rows.
SMILES,CSC inhib,UUG fidelity,eIF4H inh,MT1-MMP act inh,MT1-MMP act inh RFP,PABP FP inh,HIV Env fusion,Rce1 inhib,others
CCOC(=O)CSc1nc(Nc2ccc3c(c2)OCO3)c2ccccc2n1,-25,-8,4,7,-4,6,30,i,
Clc1ccc(CN=C(Nc2ccccc2)NC2CCCCC2)cc1,10,.,-7,-8,-4,-1,0,i,
O=S(=O)(c1ccc(Br)s1)N1CCN(CCc2ccccc2)CC1,7,-10,.,-2,-5,.,.,.,
CCOC(=O)C1=C(C)Nc2sc(C(=O)c3ccc(OC)cc3)c(N)c2C1c1ccc(C(=O)OC)cc1 (configuration not stated),14,-4,34,-15,-9,1,15,i,
O=C(O)CC(CC(=O)Nc1nncs1)c1ccccc1 (configuration not stated),-23,12,4,2,6,11,-4,i,
Cc1nc(Nc2cc(F)ccc2C)c2nnn(Cc3ccccc3)c2n1,1,2,-10,2,-1,-9,2,.,
Cc1ccnc(NC(=O)C2CC(=O)N(Cc3ccccc3)C2)c1 (configuration not stated),3,-18,.,0,-3,.,-18,i,
O=c1c[n+]([O-])c2ccccc2n1OCc1c(F)cccc1F,-4,-12,22,-49,2,13,.,i,
O=C(/C=C/c1ccccc1)c1ccc(NC2=NCCCS2)cc1,66,-11,5,-4,-4,0,6,.,
Cc1ccccc1N(CC(=O)NCCc1ccccc1)C(=O)c1ccc(N2CCCC2)nc1,-6,28,-10,-4,-1,3,-36,i,
COCCNC(=O)C1(C)CCCN(C(=O)c2ccc3snnc3c2)C1 (configuration not stated),.,-12,.,-2,4,.,3,.,
Cc1ccc2occ(/C=C/C(=O)c3ccccc3O)c(=O)c2c1,12,-5,2,-37,11,-6,.,i,
CCc1nn2c(=O)cc(CSc3nc(C)cc(=O)[nH]3)nc2s1,-1,-12,4,-2,4,-1,1,i,
Cc1ccc2c(c1)nnn2C1CCN(S(=O)(=O)c2ccc(C(=O)N3CC(C)CC(C)C3)cc2)CC1 (configuration not stated),12,-4,-12,-6,-21,-4,-51,i,
O=C(Nc1ccc(C(=O)O)cc1)Nc1cccc([N+](=O)[O-])c1,.,.,0,1,5,-11,4,i,
Cc1ccc(NC(=O)Nc2ccccc2F)cc1S(=O)(=O)N1CCOCC1,.,-14,.,0,-6,.,15,.,
CCN(c1cccc(C)c1)C(C(=O)Nc1ccc(OC)cc1)c1cc2c(cc1[N+](=O)[O-])OCO2 (configuration not stated),18,-13,4,-2,-4,-2,-21,i,
CCCn1c(CN2CCN(C(=O)OCC)CC2)nc2c1c(=O)n(C)c(=O)n2C,.,18,-3,0,-16,-3,-44,i,
Cc1cc(C(F)(F)F)c(C#N)c(N2CCOCC2)n1,-6,0,-6,0,0,11,.,i,
CC(C)c1cc(C(=O)O)n(-c2ccccc2)n1,5,-17,3,4,4,3,.,i,
CCOc1ccc(NC(=O)CSc2nc3ccsc3c(=O)n2CCC(=O)O)cc1,-4,0,-12,0,1,15,-5,i,
N#CC1(NC(=O)CSc2ccccn2)CCCCC1,-11,.,.,2,2,.,-1,i,
O=C(N=C1SC2CS(=O)(=O)CC2N1c1cc(Cl)ccc1Cl)C1CC1 (configuration not stated),9,-7,6,-1,2,0,0,i,
CCOC(=O)CSc1ccc(C(=O)Nc2ccc(OC)cc2)cn1,-5,.,-5,-2,3,-2,-13,i,
COc1cccc(NC(=O)CN(C)C(=O)c2ccc(-c3ccc(Cl)cc3)o2)c1,-11,-15,.,-2,1,.,6,i,
Cc1ccc(S(=O)(=O)N/N=C/c2ccc(C#N)cc2)cc1,0,.,-6,-1,2,2,14,i,
COCCN(CCOC)Cc1c(O)ccc2c1O/C(=C\c1ccco1)C2=O,-8,0,91*,-83,2,86*,18,i,eIF4H inh retest=95*;PABP FP inh retest=84*
CCOC(=O)c1cc(C(=O)NN)c(C)nc1C,-9,.,-6,-1,1,10,-10,i,
O=C(COc1ccccc1)N(Cc1ccco1)c1ccc(O)cc1,-2,0,-4,-3,-5,-1,.,i,
Cc1ccc(S(=O)(=O)NC(=O)NCc2ccc3c(c2)OCO3)cc1,-5,-14,-6,6,5,-3,-1,i,

# The closing six entries of the section before come first, to join the parts.
SMILES,CSC inhib,UUG fidelity,eIF4H inh,MT1-MMP act inh,MT1-MMP act inh RFP,PABP FP inh,HIV Env fusion,Rce1 inhib,others
COc1cccc(NC(=O)CN(C)C(=O)c2ccc(-c3ccc(Cl)cc3)o2)c1,-11,-15,.,-2,1,.,6,i,
Cc1ccc(S(=O)(=O)N/N=C/c2ccc(C#N)cc2)cc1,0,.,-6,-1,2,2,14,i,
COCCN(CCOC)Cc1c(O)ccc2c1O/C(=C\c1ccco1)C2=O,-8,0,91*,-83,2,86*,18,i,eIF4H inh retest=95*;PABP FP inh retest=84*
CCOC(=O)c1cc(C(=O)NN)c(C)nc1C,-9,.,-6,-1,1,10,-10,i,
O=C(COc1ccccc1)N(Cc1ccco1)c1ccc(O)cc1,-2,0,-4,-3,-5,-1,.,i,
Cc1ccc(S(=O)(=O)NC(=O)NCc2ccc3c(c2)OCO3)cc1,-5,-14,-6,6,5,-3,-1,i,
CCc1nnc(NC(=O)CSc2nnc(-c3c[nH]c4ccccc34)n2C)s1,-3,-19,-4,4,2,-4,2,i,
Nc1cc(=O)[nH]c(SCc2cccc3ccccc23)n1,-17,-6,5,1,-5,12,16,i,
O=C(N/N=C/c1cccnc1)c1cc2ccccc2o1,12,-5,-2,-3,3,-5,-5,i,
CN(Cc1ccccc1N1CCCC1)C(=O)c1cc2cc(Cl)ccc2o1,27,-1,.,1,-3,.,4,.,
O=C(c1ccccc1F)N1CCN=C1SCc1cccnc1,-6,-1,-8,-7,-6,5,23,i,
CCN(CC)CCC(c1ccc(OC)cc1)c1c(O)cc(OC)cc1OC (configuration not stated),19,-8,-12,2,3,-7,-49,i,
CCOC(=O)C1=C(CC)OC(N)=C(C#N)C1c1ccc(NC(C)=O)cc1 (configuration not stated),2,.,3,0,4,-8,-39,i,
O=C(N/N=C/C=C\c1cccc([N+](=O)[O-])c1)c1ccccn1,-2,.,17,1,3,5,-9,i,
Cc1ccc(NC(=S)NCCCN2CCOCC2)cc1,-24,.,10,-1,0,6,0,i,
CCCC(=O)Nc1ccc2oc(-c3ccncc3)nc2c1,0,-17,1,-14,-3,-8,-94,i,
COc1ccc([C@H]2CC(=O)C=C(c3ccc(F)cc3OCc3ccccc3)C2)cc1OC,20,-24,.,-2,-26,.,72*,.,
CC(=O)CC(C)=NCCN=C(C)CC(C)=O,.,-3,4,0,0,-14,-19,i,
O=C(O)/C=C/C(=O)NNC(=O)c1ccc(Cl)cc1Cl,-10,.,4,1,7,7,-1,i,
COc1ccc(OCC(=O)N2CCOCC2)cc1,-16,.,-6,2,-1,-1,.,i,
CCOC(=O)/C(C#N)=C/Nc1ccsc1C(C)=O,13,.,-14,-3,2,-13,-7,i,
COCCNC(=O)C(=O)Nc1ccc(Cl)cc1C,.,.,-9,7,6,-10,1,i,
CCNc1nc(OC)nc(N(OC)S(=O)(=O)c2ccc(C)cc2)n1,-7,-12,-7,0,4,4,-4,i,
Cc1cc(OCC(O)CN(CCO)CCO)ccc1Cl (configuration not stated),-20,-18,4,8,3,12,.,i,
CC(C)C(C(=O)Nc1ccc2c(c1)OCCOCCOCCOCCO2)N1C(=O)c2ccccc2C1=O (configuration not stated),-12,.,-9,-2,7,-6,-5,i,
O=C(NCc1ccccc1Cl)c1ccc2c(=O)n(CCCN3CCCC3=O)c(=S)[nH]c2c1,-8,34,1,2,1,0,6,i,
COc1cc(/C=C(/NC(=O)c2ccccc2)C(=O)Nc2ccc(O)cc2)c([N+](=O)[O-])cc1OC,-2,.,-9,-1,0,-7,-13,i,
CC(=O)N1c2ccc(S(=O)(=O)NCCC(=O)Nc3ccc(F)cc3)cc2CC1C (configuration not stated),-1,-4,-1,0,0,-7,-13,i,
Cc1cccn2c(Nc3ccccc3)c(-c3ccccn3)nc12,-6,-13,-4,2,-3,0,11,i,
CC(C)C(=O)OCCN=C1NS(=O)(=O)c2ccccc21,7,-11,0,-5,3,-2,4,i,
Cn1c(SCC(=O)N2CCc3ccccc3C2)nnc1-c1cccs1,5,-4,0,2,5,-3,-151,i,
Cc1ccc(NC(=S)N2CCN(S(=O)(=O)c3c(F)cccc3F)CC2)cc1C,-7,-24,-9,-1,4,-8,15,i,
COc1ccc(NC2=NCC(=O)N2c2ccccc2F)c(OC)c1,3,-10,1,0,2,15,-32,i,
CN(C)c1nc(Oc2ccc(N)cc2)nc(N(C)C)n1,-8,7,-8,0,0,-7,-21,i,
Cc1ccc(CN(C(=O)c2cc(=O)c3cc(Cl)c(C)cc3o2)C2CCS(=O)(=O)C2)cc1 (configuration not stated),-6,21,-2,0,1,-5,.,i,
CC(C)CNc1oc(-c2ccc(F)cc2)nc1C#N,.,-15,0,4,0,5,12,i,
CCOC(=O)CNC(=O)C1(c2ccccc2)CCCC1,-12,-9,-6,4,1,-3,-5,i,
CCn1cc(C(=O)N[C@@H](CCSC)C(=O)NCCCOC)c(=O)c2cc3c(cc21)OCO3,-4,-9,-6,0,0,-5,-4,i,
Cc1ccc(CNC(=O)c2ccc(NC(=O)CCS(=O)(=O)c3cccs3)cc2)cc1,-2,-19,-4,-2,-3,5,-9,i,
Clc1ccc(-n2nnnc2-c2ccno2)cc1,-9,-14,-4,2,-2,4,3,i,
Cc1ccc(C(=O)N/C(=C\c2ccco2)C(=O)NCc2cccnc2)cc1,-4,-18,49,-2,3,20,-22,i,
CN(CCOc1ccc(-c2ccn(S(=O)(=O)c3c(Cl)cccc3Cl)n2)cc1)c1ccccn1,24,.,-9,0,-1,-4,-66,i,
COc1ccccc1NC(=O)NC1CCCCCCC1,-1,1,-6,0,-1,-5,-12,i,
COc1ccc(CCNC(=O)C2CCN(C(=O)c3ccc(F)cc3)CC2)cc1,-13,13,4,0,-3,14,-6,i,
O=[N+]([O-])c1ccc(O)c(C=Nc2ccc3c(c2)OCO3)c1,-19,-20,1,-5,-1,-6,-15,i,
Cc1cc2c(c(=O)n1Cc1ccccn1)C(C(C)C)C(C#N)=C(N)O2 (configuration not stated),-17,.,6,1,2,-2,-45,i,
Cc1oc2c(cc(NS(=O)(=O)c3ccc(Cl)cc3)c3ccccc32)c1C(=O)O,-8,14,41,-3,7,46,-2,i,
COc1ccc(S(=O)(=O)Nc2nc3ccccc3nc2Nc2ccc3c(c2)OCO3)cc1,.,.,45,.,.,-8,.,i,
Cc1ccc(C)c(C(=O)CN2C(=O)CCC2=O)c1,-1,-19,-8,1,2,-4,.,i,
Cc1ncoc1C(=O)Nc1ncc([N+](=O)[O-])s1,19,.,3,-5,-1,8,2,i,
COc1ccc(S(=O)(=O)Cc2ccc(C(=O)N3CCN(c4ccc(Cl)cc4)CC3)o2)cc1,-15,-6,-10,-3,-14,-10,11,i,
COc1ccc(CNC(=O)c2cccc(NC(=O)c3ccccc3)c2)cc1,-5,.,-2,-3,-1,-4,-8,i,
